Compound activity deposited in PubChem BioAssay by National Center for Advancing Translational Sciences (NCATS).
StopGo reporter = lowers the luciferase signal of an FMDV 2A StopGo reporter; human cells with a luciferase reporter of 2A StopGo recoding; control for the full effect not named in the record; Potency, µM (top dose mostly 57.9 µM), without a hit: top-dose signal change, negative = less light; 1.2% of 410,000 active; AID 1159524; active = well fitted falling curve with a large enough effect; inconclusive = small, poorly fitted or top-dose-only effect; inactive = no such curve, though single readings can be large or run the other way; tested in HEK293T cells; also: % is scaled to controls: 0 for no effect and ±100 for the full control effect; nearly all actives have a fitted effect of over 45% in size; luciferase light after 4 h
Cruzain Triton = cruzain (T. cruzi) inhibition with detergent | 0.43% of 200,000 active | purified cruzain, Z-FR-AMC fluorescence, 0.01% Triton | Potency, µM, for the others: max response, negative = inhibition, hits mostly inhibitors | AID 1478; active = well fitted curve in the direction sought with a large enough effect; inconclusive = small, poorly fitted or top-dose-only effect, or another doubt; inactive = no such curve, though single readings can be large; an effect the other way counts as inactive or inconclusive;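 also: plate controls were neutral wells for no effect and buffer without enzyme for full effect; nearly all actives have a fitted effect of over 40% in size; top concentration of the series not given in the record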
Target sequence (P25779 123-467 limits assumed): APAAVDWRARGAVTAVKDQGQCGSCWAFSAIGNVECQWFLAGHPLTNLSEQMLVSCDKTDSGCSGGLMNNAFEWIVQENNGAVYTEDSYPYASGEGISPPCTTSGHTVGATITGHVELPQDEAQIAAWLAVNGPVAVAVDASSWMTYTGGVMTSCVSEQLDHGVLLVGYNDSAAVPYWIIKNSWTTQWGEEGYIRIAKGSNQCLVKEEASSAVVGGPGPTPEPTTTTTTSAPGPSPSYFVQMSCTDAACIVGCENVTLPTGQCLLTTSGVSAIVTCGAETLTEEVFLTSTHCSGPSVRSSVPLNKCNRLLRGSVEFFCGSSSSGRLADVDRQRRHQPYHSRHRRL
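Sodium acetate buffer (100 mM, pH 5.5) containing 5 mM DTT and 0.01% Triton X-100 hosted 1.5 nM cruzain and test compound for 15 min at room temperature. Cleavage of 2 uM Z-FR-AMC was then tracked by fluorescence.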
NS1 inh = blocks influenza NS1 protein function; S. cerevisiae slowed by influenza A NS1, growth recovery by OD600; Potency, µM (titrated, usually from 46.1 µM), without a hit: top-dose activity, positive = more growth; 0.4% of 270,000 active; AID 2326; also: actives are rising curves; nearly all actives have a fitted effect of over 50% in size
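Read-out: OD600 growth recovery of NS1-expressing budding yeast. Cells grown overnight at 30C in -URA glucose medium, washed, resuspended and diluted 1:100 in 2% galactose assay medium, pH 6.0. Same strain lacking NS1 served as positive control.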
SARS PLP yeast = SARS-CoV PLP inhibition in yeast; S. cerevisiae expressing SARS-CoV PLpro, growth rescue; control for the full effect not named in the record; Potency, µM (doses to about 32.9 µM), for inactives: at the highest dose activity, positive = growth rescue; 0.19% of 330,000 active; also: 0% is about no effect; nearly all actives have a fitted effect of over 55% in size; growth read by luminescence after 48 h
LASV entry inh = blocks Lassa virus binding to or entry into cells; Lassa virus pseudotype entry inhibition, cell reporter; control for the full effect not named in the record; Potency, µM (doses to about 37.9 µM), for inactives: at the top dose activity change, negative = inhibition, most hits filed as inhibitors; 1.2% of 300,000 active; AID 540256; active means well fitted inhibition curve with a large enough effect; inconclusive means small, poorly fitted or top-dose-only effect, or effect the other way; inactive means flat fitted curve, though single readings scatter; tested in HEK293 cells; also: % is scaled to controls: 0 for no effect and ±100 for the full control effect; nearly all actives have a fitted effect of over 50% in size; luciferase read-out
RE007 growth inh = less growth of the S. pombe RE007 Vpr strain; 0.21% of 360,000 active; S. pombe RE007 Vpr strain, BacTiter-Glo ATP luminescence, 24 h; control for the full effect not named in the record; AID 651644; Potency, µM (top dose mostly 92.2 µM), for inactives: top-dose activity change, negative = less growth; active = well fitted falling curve with a large enough effect; inconclusive = small, poorly fitted or top-dose-only effect; inactive = no such curve, though single readings can be large or run the other way;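 also: % is scaled to controls: 0 for no effect and ±100 for the full control effect; nearly all actives have a fitted effect of over 50% in size; the assay follows cell death caused by Vpr and the record does not say whether a fall means rescue or toxicity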
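Fission yeast RE007 carrying one integrated HIV-1 vpr copy, seeded at OD 0.01 in PMG+AL medium with 23 nL pinned compound. Grown 24 h at 30 degrees; viability read by BacTiter-Glo luminescence after 5 min.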
Cruzain inh noDet = cruzain (T. cruzi) inhibition without detergent; purified cruzain, Z-FR-AMC fluorescence, no detergent; Potency, µM, for the others: max response, negative = inhibition, most hits filed as inhibitors; 2.3% of 200,000 active; AID 1476; active = well fitted curve in the direction sought with a large enough effect; inconclusive = small, poorly fitted or top-dose-only effect, or another doubt; inactive = no such curve, though single readings can be large; an effect the other way counts as inactive or inconclusive;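 also: plate controls were enzyme without inhibitor for no effect and buffer without enzyme for full effect; nearly all actives have a fitted effect of over 40% in size; top concentration of the series not given in the record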
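Detergent-free condition (0.00005% Triton X-100) in acetate buffer pH 5.5 with DTT. 1.5 nM enzyme and compound were pre-mixed 15 min, then 2 uM Z-FR-AMC substrate added; reaction progress from fluorescence change between first and third reads (60 s).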
MARV entry inh = inhibitors of Marburg virus binding or cell entry; Marburg virus pseudotyped entry inhibition, cell reporter; control for the full effect not named in the record; about a third of the inactives were read at about 46 µM; Potency, µM (series often up to 37.8 µM), inactives show at the highest dose activity change, negative = inhibition, actives largely listed as inhibitors; 1.8% of 300,000 active; active = well fitted inhibition curve with a large enough effect; inconclusive = small, poorly fitted or top-dose-only effect, or effect the other way; inactive = flat fitted curve, though single readings scatter; tested in HEK293 cells; about a fifth of its hits are not listed in these tables; also: % is scaled to controls: 0 for no effect and ±100 for the full control effect; luciferase read-out
* = called active by the depositor; u = inconclusive; x = no result given; & = joins results of further samples; [ ] = remark or other dose. Unless noted, calls follow the shape of the dose curve; as a rule, active means well fitted rising curve with a large enough effect; inconclusive means small, poorly fitted or top-dose-only effect; inactive means no such curve, though single readings can be large or run the other way. Potency is read from the fitted curve at half-maximal effect. The order is random; 4.7% or so of the library scored in one or more.

SMILES	StopGo reporter	Cruzain Triton	NS1 inh	SARS PLP yeast	LASV entry inh	RE007 growth inh	Cruzain inh noDet	MARV entry inh
Cc1c(C)c(C)c2[nH]c(=S)[nH]c2c1C	-17.8%	x	4.1%	-2.3%	-6.6%	-4.8%	x	-0.3%
C=C(C)C1CC=C(C)/C(=N/NC(=O)COc2ccc(Cl)cc2)C1 (stereo unspecified)	-7.2%	1.5%	11.5%	u	-24.5%	2.9%	-27.5%	24.1%
Cc1ccc(-c2cn3ccc(C)cc3n2)cc1	-19.2%	-3.8%	x	x	u	x	13.2%	x
CCc1ccc(NC(=O)c2ccc(NC3=NC4CS(=O)(=O)CC4S3)cc2)cc1 (stereo unspecified)	16.8%	x	-11.1%	0.8%	x	19.3%	x	x
O=C(NNC(=O)c1cccc([N+](=O)[O-])c1)c1ccncc1	0.9%	x	1.3%	0.7%	-1.8%	7.1%	x	-22.3%[14.2 µM]
CC1CCN(C(=O)CSc2nnc(Cc3cc(=O)[nH]c(=O)[nH]3)n2-c2ccc(Cl)cc2)CC1	-19.3%	-0.8%	2.7%	-25.7%	0.5%	-1.0%	17.2%	-19.4%&-19.4%
COC(=O)c1ccc(NC(=O)n2ncc3c(C)cccc32)cc1	55.3%[activator]	-1.7%	x	x	9.6%[46.1 µM]	x	7.2%	-9.8%[46.1 µM]
CC(C)C(=O)Nc1ccc(C(=O)NC2CCSC2=O)cc1 (stereo unspecified)	0.0%	-3.7%	-4.6%	-2.8%	28.6%	6.3%	-6.3%	21.8%
COc1ccc(C(=O)NCCCOc2cccc(NC(C)=O)c2)cc1	32.5%[activator]	x	-0.5%	-0.2%	u	1.7%	x	2.6%
Cc1cccc(C)c1NC(=O)CN(C)C(=O)CC1Sc2ccccc2NC1=O (stereo unspecified)	17.2%	x	x	2.2%	1.6%	2.6%	x	u
O=C(CN1C(=O)NC2(CCOc3ccccc32)C1=O)c1ccc(Cl)cc1 (stereo unspecified)	-4.4%	x	x	-0.6%	-9.6%	1.6%	x	-3.6%[46.1 µM]
CN1/C(=C\C=O)C(C)(C)c2ccccc21	-9.7%	x	x	-0.7%	-23.7%	4.1%	x	5.2%[46.1 µM]
C=CCn1c(SCC(=O)NC2CCCCC2)nc2ccccc2c1=O	-5.9%	x	-1.2%	-4.2%	13.7%	2.2%	x	u
S=C(N/N=C/c1ccc(Cl)cc1)N1CCOCC1	89.6%[activator]	-4.5%	-42.7%	-23.4%	4.1%	-2.8%	-4.9%	16.3%
O=c1nc2n(c3cc(Cl)c(S(=O)(=O)N4CCOCC4)cc13)CCCCC2	-4.0%	6.4%	-9.3%	2.3%	-19.9%	33.0%	-6.1%	-4.8%
Cc1ccc(C(=O)O)cc1NC(=O)c1cccs1	-6.9%	4.1%	6.9%	-10.1%	-9.9%	-4.7%	-2.7%	2.7%
Cc1cccc(N(C)c2nc3ccc(C(=O)c4ccccc4)cc3n3c(C)nnc23)c1	u	-3.8%	x	x	-6.0%[46.1 µM]	x	-14.7%	x
CCN(CC)c1ccc(NC(=O)CN2C(=O)c3cccnc3Sc3ccccc32)c(C)c1	22.7%	-2.2%	x	x	20.7%[46.1 µM]	x	-6.8%	x
Cc1cccc(OCC(=O)NCCNC(=O)c2ccco2)c1	9.0%	x	-8.5%	2.3%	x	-17.1%	x	27.2%[46.1 µM]
NC(=O)C1(N2CCCCC2)CCN(Cc2ccc(Br)cc2)CC1	-29.5%	x	0.8%	0.2%	x	2.0%	x	x
CC1CCN(C(=O)CN(c2cccc(F)c2)S(C)(=O)=O)CC1	-9.4%	x	8.4%	0.6%	-2.7%	-6.9%	x	1.1%[46.1 µM]
COC(C(=O)Nc1ccc(S(=O)(=O)Nc2ccc(C)c(C)c2)cc1)c1ccccc1 (stereo unspecified)	-21.1%	-6.3%	24.6%	-6.3%	u	x	-11.3%	u
O=C(NC(=S)NC1CCSC1=O)c1cccs1 (stereo unspecified)	-10.0%	-2.5%	18.4%	8.3%	15.7%	1.4%	-0.9%	u
CCCc1nc(SCC(=O)c2ccc(OC)cc2)c2c(=O)n(C)c(=O)n(C)c2n1	x	0.3%	5.2%	3.0%	x	x	-7.1%	4.5%
C=CCn1c(CC(=O)Nc2ccc(C)cc2C)nnc1SCC(=O)N1CCOCC1	0.4%	x	u	x	u	1.3%	x	17.6%
COc1ccc(C(=O)NCC(=O)n2nc(C)cc2C)cc1OC	7.7%	4.3%	-2.9%	5.3%	4.1%	-1.1%	-1.6%	u
CCCc1ncc(C(=O)c2ccc(OC)cc2)n1C	20.7%	1.7%	-0.6%	-2.4%	-5.6%	5.8%	-1.0%	3.5%
COc1ccc(C2C=C(c3ccccc3)Nc3nc(NC(=O)/C=C/c4ccccc4OC)nn32)cc1 (stereo unspecified)	-18.5%	-9.2%	x	x	-4.8%[46.1 µM]	x	11.2%	13.4%[46.1 µM]
COCCNC(=O)Cn1cc(/C=N/NC(=O)c2ccc(Oc3ccc(O)cc3)cc2)c2ccccc21	-5.6%	x	x	0.2%	-12.0%	-6.1%	x	5.2%[46.1 µM]
Cc1nc(C#N)c(N/N=C/c2c(F)cccc2Cl)o1	30.0%[activator]	-6.9%	-32.9%	11.2µM*	2.8%	-7.8%	-3.9%	1.9%
CCOC(=O)CSc1nnc(-c2ccc(OC)cc2OC)o1	x	2.7%	-55.2%	-3.8%	11.3%	9.5%	1.3%	u
CC(C)n1c(SCC(=O)Nc2ccc3c(c2)OCO3)nc2c1c(=O)n(C)c(=O)n2C	-21.9%	-5.8%	1.0%	-0.7%	-23.0%	-13.8%	8.0%	-17.4%
CCc1cc2c(cc(C(=O)O)n2C)s1	u	3.0%	-184.0%	-15.0%	19.2%	-19.3%	5.1%	-6.1%
O=C(Nc1ncc2c(n1)-c1ccccc1OC2)c1ccc(Cl)cc1Cl	19.8%	-10.0%	10.5%	1.0%	-1.5%	8.5%	u	-3.3%
COc1ccc(CN2CC(COCc3ccccc3)Oc3ccccc3S2(=O)=O)cc1 (stereo unspecified)	u	x	x	9.6%	u	2.9%	x	x
O=C(CSc1cn(CC(=O)N2CCOCC2)c2ccccc12)Nc1ccccc1	8.9%	0.1%	x	x	18.6%[46.1 µM]	x	-7.3%	x
O=c1c2sc3ccccc3c2n(Cc2cccc(F)c2)c(=O)n1CCc1ccccc1	22.6%	-3.2%	x	x	u	x	-1.1%	u
CCc1nnc(NC(=O)c2ccc(S(=O)(=O)NC3CCCCC3)cc2)s1	x	4.9%	-0.5%	-2.2%	-12.6%	9.3%	u	-15.7%
O=C(COC(=O)/C=C/c1cccs1)Nc1cccc(S(=O)(=O)N2CCOCC2)c1	-13.9%	x	-3.1%	0.4%	26.4%	-10.7%	x	-19.2%[46.1 µM]
CCOC(=O)C(C)Oc1ccc2c(C)cc(=O)oc2c1C(C)=O (stereo unspecified)	-8.8%	0.3%	-8.1%	-6.4%	8.6%	6.2%	-6.4%	14.6%
COCCn1c(SCCCc2ccccc2)nc2c1c(=O)[nH]c(=O)n2C	0.0%	-4.7%	-56.5%	u	-24.1%	8.0%	-2.2%	-8.2%[46.1 µM]
O=[N+]([O-])c1ccc(S(=O)(=O)CC(CN2CCCCC2)N2CCCCC2)cc1 (stereo unspecified)	17.8µM*	x	x	-0.2%	5.17µM*	-0.5%	x	4.61µM*
CC(=O)c1cccc(N(C(=O)c2ccco2)C(C(=O)NC2CCCC2)c2cccs2)c1 (stereo unspecified)	19.9%	x	9.2%	-0.3%	1.1%[46.1 µM]	6.6%	x	u
Cc1cc(=O)n(Cc2ccc(Br)cc2F)c2c1c(C)nn2-c1ccccc1	1.7%	-0.8%	x	x	-3.7%[46.1 µM]	x	-9.9%	x
COC(=O)n1c(=O)oc2cc(S(=O)(=O)N3CCOCC3)ccc21	2.4%	-0.7%	-5.5%	-2.4%	19.9%	3.2%	7.8%	-17.9%
O=C(CSCc1cc(=O)[nH][nH]1)Nc1ccc(F)cc1	-7.6%	x	x	21.1%	-1.1%	20.3%	x	-0.8%[46.1 µM]
Cc1cc(C(=O)N/N=C/c2ccc(C)o2)c2ccccc2n1	-6.3%	-9.3%	u	7.7%	u	1.2%	5.0%	u
NC(=O)C1CCN(C(=O)C23CC4CC(CC(C4)C2)C3)CC1	17.4%	5.9%	u	1.4%	1.0%	0.8%	15.1%	4.4%[46.1 µM]
O=C(NCc1ccncc1)C(=O)NCC1OCCN1S(=O)(=O)c1ccc(Br)cc1 (stereo unspecified)	0.0%	x	4.7%	u	-11.9%	-21.2%	x	0.7%
CCOC(=O)[C@@H]1[C@H]2COc3cc(OC)ccc3[C@@H]2N2C(=O)N(c3ccc(OC)cc3)C(=O)[C@]12C	-15.3%	x	8.2%	1.5%	x	-2.1%	x	x
New compounds follow:
SMILES	StopGo reporter	Cruzain Triton	NS1 inh	SARS PLP yeast	LASV entry inh	RE007 growth inh	Cruzain inh noDet	MARV entry inh
N=c1c(C(=O)NC2CCCCC2)cc2c(=O)n3ccccc3nc2n1Cc1cccnc1	7.4%	x	-13.4%	1.2%	5.6%	-6.8%	x	3.0%[46.1 µM]
CCCc1nc2c(c(=O)c3ccccc3n2C)c(=O)n1-c1cc(C)cc(C)c1	-2.4%	x	0.1%	1.5%	x	-3.2%	x	x
CCOc1cc(N2CCOCC2)c(OCC)cc1NC(=O)CN1C(=O)NC2(CCCCC2C)C1=O (stereo unspecified)	-22.4%	x	x	-0.3%	-8.0%	-2.0%	x	9.2%
O=C(Nc1ccc2nc(SCCOc3ccccc3Cl)sc2c1)c1cccs1	-23.8%	-2.8%	x	x	-5.9%[46.1 µM]	x	u	2.3%[46.1 µM]
COc1ccc(C(=O)CSc2nnc(-c3ccco3)n2CC2CCCO2)cc1 (stereo unspecified)	-7.9%	-1.9%	0.3%	-1.6%	-5.0%	8.1%	-10.8%	-18.6%[46.1 µM]
COc1ccccc1CCNC(=O)C1CCC(=O)N(Cc2ccccc2OC)C1 (stereo unspecified)	-8.3%	x	5.4%	0.4%	21.3%	-14.6%	x	17.2%
